# KCNQ2 enhance: KCNQ2 (rat) channel potentiation; CHO-K1 KCNQ2, FluxOR thallium flux fluorescence; active compounds read high; O88943; AID 2239; B-score at 10 µM; hit rate 0.54% among 310,000;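 active means fluorescence ratio B-score at least 3 SD of library B-scores, with initial fluorescence B-score within 3 SD, cut at about 5.3 in these data; same plate scores as AID 2156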;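 further: B-score of peak minus minimum over baseline fluorescence ratio after K+ and Tl+ stimulus; positive B-score means potentiation of KCNQ2 with more thallium influx and brighter signal; only the inactives scoring about 0 or higher are listed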
# Target sequence (O88943 whole entry, looked up): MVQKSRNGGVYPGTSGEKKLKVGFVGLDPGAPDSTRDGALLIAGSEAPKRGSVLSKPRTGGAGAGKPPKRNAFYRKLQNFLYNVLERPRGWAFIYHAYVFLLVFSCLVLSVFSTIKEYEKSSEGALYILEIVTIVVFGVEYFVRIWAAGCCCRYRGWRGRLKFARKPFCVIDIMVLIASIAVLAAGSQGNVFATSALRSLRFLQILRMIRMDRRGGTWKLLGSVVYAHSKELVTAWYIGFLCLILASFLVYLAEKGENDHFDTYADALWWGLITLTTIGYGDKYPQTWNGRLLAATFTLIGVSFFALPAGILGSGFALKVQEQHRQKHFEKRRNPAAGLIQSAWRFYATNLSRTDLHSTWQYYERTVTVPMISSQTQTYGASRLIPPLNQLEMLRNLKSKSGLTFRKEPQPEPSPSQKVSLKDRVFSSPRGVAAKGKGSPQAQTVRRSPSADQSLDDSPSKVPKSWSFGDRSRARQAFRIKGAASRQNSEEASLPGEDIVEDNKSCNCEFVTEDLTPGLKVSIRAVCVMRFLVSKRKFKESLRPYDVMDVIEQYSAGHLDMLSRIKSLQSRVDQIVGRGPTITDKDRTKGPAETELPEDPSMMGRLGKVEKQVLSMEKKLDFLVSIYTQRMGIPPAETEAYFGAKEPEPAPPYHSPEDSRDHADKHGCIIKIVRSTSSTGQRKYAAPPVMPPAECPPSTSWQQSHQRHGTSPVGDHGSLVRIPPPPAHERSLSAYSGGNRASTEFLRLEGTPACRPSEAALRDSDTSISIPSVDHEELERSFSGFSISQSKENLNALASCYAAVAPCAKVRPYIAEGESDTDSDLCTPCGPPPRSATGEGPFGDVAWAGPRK
# KCNQ2 enhance baseline: further read-out of KCNQ2 enhance, marked with its call; B-score; compound at 10 µM; measured here: initial fluorescence intensity artifact check;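 brightness before thallium and not channel activity; 0 = typical well and far values either way flag optical interference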
# * hit, by the source's call. The list is partial. The share of hits here may be higher or lower than overall.
SMILES,KCNQ2 enhance,KCNQ2 enhance baseline
COC(=O)c1ccc(C)c(NC(=O)c2nn(C)c(=O)c3ccccc23)c1,0.55,0.38
Cc1ccc(C(C)C)c(OCC(=O)N/N=C/c2ccc(S(=O)(=O)O)o2)c1,0.14,-0.85
CCn1c2ccccc2c2nnc(SCC(=O)NC3CCS(=O)(=O)C3)nc21 (stereo unspecified),0.46,-0.73
C/C(=N\NC(=O)Cn1nc(C)c([N+](=O)[O-])c1C)c1ccc(O)cc1,0.05,-0.73
O=C1CC[C@@H](CN(Cc2ccccn2)Cc2nc(-c3ccc(C(F)(F)F)cc3)no2)N1,0.2,1.6
CCOC(=O)c1ccc(NC(=O)C2CCCN(c3cnccn3)C2)cc1 (stereo unspecified),0.15,0.38
CC(=O)Nc1ccc(NC(=O)C/C(C)=N/NC(=O)C(=O)N2CCCC2)cc1,0.15,-0.67
N#Cc1ccsc1NC(=O)c1cnccn1,1.1,-1.3
O=C(CCS(=O)(=O)c1cccc2nsnc12)N1CCN(c2ccccc2F)CC1,0.02,2
Cc1c(C)c2c(OCC(=O)NCC(C)C)cc3c(c2oc1=O)CCC(C)(C)O3,0.16,1.5
COc1ccc(NC(=O)c2ccccc2[N+](=O)[O-])cc1OC,1.9,-1.8
COC(=O)C1CCN(C(=O)c2ccc(OC3CCN(Cc4ccccn4)CC3)cc2)CC1,0.01,-0.49
O=[N+]([O-])c1ccc(CSC2=NCCN2)cc1,1.8,0.12
O=C(NCc1nnc(SCC(=O)N2CCN(c3ccccc3)CC2)o1)c1c(F)cccc1F,0.83,-1.4
CCC(=O)NC(=S)Nc1ccccc1OC,0.98,0.6
O=C(COC(=O)c1cnccn1)c1ccc([N+](=O)[O-])cc1,0.64,-0.95
c1ccc(OCCCn2nnc(-c3cccnc3)n2)cc1,1.6,-0.28
O=C(Nc1ccc(F)cc1)C(=O)C1C(=O)Nc2ccccc21 (stereo unspecified),0.02,-0.85
COc1ccc(S(=O)(=O)N2CCCCC2)cc1C(=O)Nc1cc(C)on1,0.49,-0.18
CN(C)c1ccc(S(=O)(=O)NCC(=O)NCc2ccccc2)cc1[N+](=O)[O-],0.78,0.5
COc1ccccc1NC(=O)CSc1nnc(NC(=O)c2ccco2)s1,0.77,-0.98
Cc1cc(NS(=O)(=O)c2ccc(NC(=O)c3ccc(Cl)cc3Cl)cc2)no1,0.18,0.95
O=C(CN(CC1CCCO1)C(=O)CNS(=O)(=O)c1ccc(Cl)cc1)NC1CCCCC1 (stereo unspecified),2.1,-0.83
COc1ccc(CC(C)N2CCN(c3ccccc3)CC2)cc1OC (stereo unspecified),0.77,0.15
Fc1ccccc1CNC(=S)NCc1ccc(Cl)cc1,1.3,0.15
O=C(Nc1nc(-c2ccc(Cl)cc2)cs1)c1cccnc1,1.6,1.4
C/C=C(\C)C(=O)Nc1cccc(C2=NOC3(C2)C[C@@H](C(N)=O)N(C(=O)c2ccccc2C(=O)c2ccccc2)C3)c1 (stereo partly specified),0.74,-2.8
CN1CCN(c2nc3c(c(=O)[nH]c(=O)n3C)n2Cc2ccccc2F)CC1,1.3,0.87
CCOc1ccc(C(=O)NCC(=O)OCC(=O)Nc2cccc(S(=O)(=O)N3CCCC3)c2)cc1,1.3,-0.15
COc1cc(OC)c(NC(=O)Cc2cccs2)cc1Cl,5.1,-0.5

# Some of these compounds in order of number of heavy atoms, ascending.
SMILES,KCNQ2 enhance,KCNQ2 enhance baseline
CCC(=O)NC(=S)Nc1ccccc1OC,0.98,0.6
COc1ccc(NC(=O)c2ccccc2[N+](=O)[O-])cc1OC,1.9,-1.8
Cc1cc(NS(=O)(=O)c2ccc(NC(=O)c3ccc(Cl)cc3Cl)cc2)no1,0.18,0.95
COC(=O)C1CCN(C(=O)c2ccc(OC3CCN(Cc4ccccn4)CC3)cc2)CC1,0.01,-0.49

# (continued)
SMILES,KCNQ2 enhance,KCNQ2 enhance baseline
CCC1COCCS(=O)(=O)N1Cc1ccc(F)cc1 (stereo unspecified),0.04,0.05
CN(C)c1oc(-c2ccccc2[N+](=O)[O-])nc1C#N,4.6,-0.05
Cc1cc(NC(=O)CSc2nc(CCC3CCCC3)nc3ccccc23)no1,2.6,-0.11
O=S(=O)(c1cccs1)N1CCN(c2ccc(F)cc2)CC1,0.61,0.44
C=CCn1c(SCC(=O)N2CCCCCC2)nc2ccccc2c1=O,1.8,2.1
O=C1Nc2ccc(S(=O)(=O)NCc3ccco3)c3cccc1c23,0.49,-0.15
Cc1nnc(SCC(=O)N2CC(=O)Nc3ccccc32)s1,0.87,-0.17
Cc1c2c(c(C)n1C)C(C(=O)NC1CCCCC1)N(Cc1ccccc1)C2=O (stereo unspecified),0.6,-0.28
COc1ccc(C(=O)/C=C/Nc2ccc(S(=O)(=O)Nc3nc(C)cc(C)n3)cc2)c(OC)c1,1.7,-0.62
Cc1ccc(NC(=O)CCN2CC(C)OC(C)C2)cc1C (stereo unspecified),0.68,-1.4
COc1ccc(-n2cc(CNC3CCOCC3)c(-c3cccc(F)c3)n2)cc1,0.47,-2.1
O=C(O)C1=C[C@@H](c2ccc3c(c2)OCO3)C[C@@H](OCCCCO)O1,0.11,2
O=C(NCc1ccccc1)Nc1cc(Cl)ccc1Cl,0.04,0.09
CCn1c2ccccc2c2cc(NC(=O)C(=O)N3CCOCC3)ccc21,0.94,-0.98
C/C(=N\NC(=O)c1cccc(S(=O)(=O)N2CCOCC2)c1)c1cc2ccccc2o1,0.02,0.81
Cc1[nH]nc(Nc2ccc(Br)cc2)c1[N+](=O)[O-],2,-1.6
CCS(=O)(=O)n1nc(-c2ccco2)nc1SC,2.5,-1.3
COc1ccc(NC(=S)N(CCCOC(C)C)C2CCN(C(C)=O)CC2)cc1Cl,0.97,1.8
Cc1cccc(CC(=O)Nc2ccc(C(=O)N3CCOCC3)cc2)c1,0.65,0.85
O=C(Cc1cc(=O)[nH]c(=O)[nH]1)N1CCN(C(=O)c2ccco2)CC1,2.2,0.94
OC(CNC1CCCCC1)COCCOc1ccc(Br)cc1 (stereo unspecified),0.97,-0.94
CCN1CCN(c2ccc(NC(=O)c3cccc(N4CCCC4=O)c3)cc2)CC1,0.96,0.96
CC1CC(C)CN(CCOc2ccccc2-c2ccccc2)C1 (stereo unspecified),1.1,-1.1
CC(/C=N/N1CCN(Cc2ccccc2)CC1)=C\c1ccccc1,0.01,2
Cc1ccccc1OCC(=O)Nc1ccc2[nH]ncc2c1,1.7,-0.96
CC(NC(=O)c1ccccc1Cl)c1ccc(-n2ccnc2)cc1 (stereo unspecified),0.79,1.5
O=C(NCCCN1CCCC1=O)c1ccc(CNS(=O)(=O)c2ccc(F)cc2)cc1,0.32,1
CCOC(=O)N1CCC(c2cc(=O)n3[nH]c(-c4ccccc4)cc3n2)CC1,1.8,-2.1
Cc1cc(C)n2ncnc2n1,1.5,-0.58
NC(N)=NS(=O)(=O)c1ccc(NC(=S)Nc2ccc(F)cc2)cc1,0.4,1.2
CN(C)Cc1ccccc1Sc1ccccc1Br,0.16,-0.99
Cc1ccc(C)c(CN2C(=O)CSc3ccc(C(=O)NCC(C)CN4CCC(C)CC4)cc32)c1 (stereo unspecified),0.01,1.4
Cn1nnnc1SCC(=O)Nc1cccc(S(=O)(=O)N2CCCC2)c1,0.55,-1
COc1cccc(CNC(=O)C2CCCN(c3cnccn3)C2)c1 (stereo unspecified),0.31,1.6
COc1cc2c(cc1OC)C(C)N(C(=O)c1nccnc1C(=O)O)CC2 (stereo unspecified),0.59,-0.14
COC(=O)C1C2C=CC3(CN(C4CCCC4)C(=O)C13)O2 (stereo unspecified),1.5,-0.1
CC12CC3CC(C)(C1)CC(C(=O)NC1=NCCS1)(C3)C2,1.5,-1.1
Cc1noc(/C=C/N(C)C)c1S(=O)(=O)N(C)Cc1ccc(F)cc1,2.1,-0.05
CC1=CC(C)C(C(=O)O)C(C(=O)O)C1 (stereo unspecified),0.85,-1.2
Cc1nn(-c2ccccc2)c(C)c1N,1.1,-1.7
COc1ccc(C(=O)Nc2ccc(S(=O)(=O)N3CCN(C)CC3)cc2)cc1[N+](=O)[O-],0.99,0.56
CC(=O)Nc1ccc(Nc2ccc([N+](=O)[O-])cn2)cc1,0.59,0.11
CN(CC1COc2ccccc2O1)C(=S)NC1CCCCC1 (stereo unspecified),1.2,-0.29
C=CCNC(=S)NS(=O)(=O)c1cccs1,0.11,1.7
COc1ccc(-c2cc(C(F)F)nc(-n3nc(C)cc3C)n2)cc1,0.19,0
CCN(CC)S(=O)(=O)c1ccc(OC)c(-n2cnnn2)c1,0.88,1.1
CCCCOc1cccc(C(=O)N(Cc2ccco2)C2CCS(=O)(=O)C2)c1 (stereo unspecified),1.6,-0.89
COC(=O)c1ccc(Cn2nc(C(F)(F)F)cc2C)cc1,0.26,0.05
Cc1nn(-c2cc(N3CCOCC3)ccc2[N+](=O)[O-])c(=O)c2ccccc12,0.58,0.97
CC(C)CNCC1OCc2ccccc2CO1,0.25,1.6
C/C(=N\Nc1cccc([N+](=O)[O-])c1)c1cc(F)ccc1O,1.9,0.4
Cc1cc(C)n(-c2ccc(C(=O)Nc3nc4ccccc4s3)cc2)n1,1.3,-0.37
CC1CN(C(=O)c2ccc(NS(=O)(=O)c3ccc(C(C)(C)C)cc3)cc2)CC(C)O1 (stereo unspecified),0.41,1.1
COC(=O)C1CC(=O)N(c2ccc(C)cc2)C1 (stereo unspecified),0.87,0
Nn1c(SCC(=O)N2CCOCC2)nnc1-c1ccccc1Cl,1.4,-0.71
Cc1cccc2cc(CN(Cc3ccco3)S(=O)(=O)c3ccc4c(c3)OCCO4)c(=O)[nH]c12,0.7,1.3
Cc1ccc(C(=O)Nn2c(C)nc3ccccc3c2=O)cc1C,1.6,-0.27
O=C(O)/C=C/C(=O)Nc1nc(-c2ccc3ccccc3c2)cs1,0.91,-0.23
Cc1cccc(Nc2nc(C)cc(C)n2)c1,0.27,-0.74
CNCC(=O)N(CC(C)C)c1c(N)n(CC(C)C)c(=O)[nH]c1=O,0.92,1

# Some of the entries above, set out differently.
molecule: CCCCOc1cccc(C(=O)N(Cc2ccco2)C2CCS(=O)(=O)C2)c1 (stereo unspecified)
  KCNQ2 enhance: 1.6 | KCNQ2 enhance baseline: -0.89
molecule: COC(=O)c1ccc(Cn2nc(C(F)(F)F)cc2C)cc1
  KCNQ2 enhance: 0.26 | KCNQ2 enhance baseline: 0.05
molecule: Cc1nn(-c2cc(N3CCOCC3)ccc2[N+](=O)[O-])c(=O)c2ccccc12
  KCNQ2 enhance: 0.58 | KCNQ2 enhance baseline: 0.97
molecule: CC(C)CNCC1OCc2ccccc2CO1
  KCNQ2 enhance: 0.25 | KCNQ2 enhance baseline: 1.6

# Following part.
SMILES,KCNQ2 enhance,KCNQ2 enhance baseline
CCN1CCN(C(=O)C2c3cc(OC)c(OC)cc3C(=O)N3CCc4ccccc4C23)CC1 (stereo unspecified),0.14,-1.2
COC(=O)c1cc(Br)c(=O)n(-c2ccccc2OC)c1,0.17,0.17
COCCNc1nnc(SCC(=O)NNC(=O)c2ccc([N+](=O)[O-])cc2)s1,1.9,-1.4
CCSC1=C(C#N)C(c2ccc3c(c2)OCO3)C2=C(CCCC2=O)N1 (stereo unspecified),1.5,0.67
O=C1C2C3C=CC(C4CC34)C2C(=O)N1/N=C/c1ccc(-c2ccc(F)cc2[N+](=O)[O-])o1 (stereo unspecified),0.53,0.53
COCCCNC(=O)CSc1nc2c(sc3ccccc32)c(=O)n1CCCC(=O)NCC1CCCO1 (stereo unspecified),0.31,0.02
O=C(NC1CCCCCCC1)C1c2ccccc2C(=O)N1Cc1cccs1 (stereo unspecified),0.26,0.48
O=C(Cc1ccccc1)Nc1ccccc1Oc1ccccc1,3.8,-1.3
Cc1ccc(NC(=O)CSc2nc3ccc(Nc4nc(N5CCOCC5)nc(N5CCOCC5)n4)cc3s2)cc1,0.47,-2
Cc1c(N=Cc2cc3c(cc2Cl)OCO3)c(=O)n(-c2ccccc2)n1C,0.96,-1.9
CCOC(=O)/C(=N/Nc1ccc(Cl)cc1)S(=O)(=O)c1ccccc1,0.1,0.04
CCOc1ccc(C(C)NC(=O)Cc2ccccc2)cc1OCC (stereo unspecified),0.54,0.2
Cc1cc(C)c2c(=O)n(CC(=O)N3CCC(N4CCCCC4)CC3)sc2n1,3,0.01
Cc1nn(C(C)C(=O)NCCCN2CCCC2)c(=O)c2nn(-c3ccccc3)c(C)c12 (stereo unspecified),0.28,0.32
CCOc1ccc(N=C(NC#N)SCC)cc1,0.06,-1.1

# Next part; it opens with the four that closed the last part.
SMILES,KCNQ2 enhance,KCNQ2 enhance baseline
CCOc1ccc(C(C)NC(=O)Cc2ccccc2)cc1OCC (stereo unspecified),0.54,0.2
Cc1cc(C)c2c(=O)n(CC(=O)N3CCC(N4CCCCC4)CC3)sc2n1,3,0.01
Cc1nn(C(C)C(=O)NCCCN2CCCC2)c(=O)c2nn(-c3ccccc3)c(C)c12 (stereo unspecified),0.28,0.32
CCOc1ccc(N=C(NC#N)SCC)cc1,0.06,-1.1
Cc1cc(=O)n2[nH]c(C(=O)O)nc2n1,0.61,-0.33
CC(C)C1S/C(=N/N=C/c2cccs2)NC1=O (stereo unspecified),0.32,-0.58
O=S(=O)(Nc1nc2ccccc2nc1NCC1CCCO1)c1ccccc1 (stereo unspecified),1.3,-0.11
CCN1C(=O)c2ccc(C(=O)Nc3ccc(O)cc3C)cc2C1=O,0.44,-0.05
CC1CN(c2ccc(S(=O)(=O)N3CCCC3)cn2)CC(C)O1 (stereo unspecified),0.06,1.5
Cc1c(C)c2ccc(OCC(=O)NC3CCN(Cc4ccccc4)CC3)cc2oc1=O,0.86,0.07
COCCNC(=O)COc1cccc(Oc2ccccc2)c1,0.77,-0.4
Cc1ccc(CNCc2cc3c(C(C)(C)C)nn(-c4ccccc4)c3[nH]c2=O)cc1,0.48,-1.4
CCOC(=O)c1c(C)oc2c1c(C=NCCO)c(O)c1ccccc12,0.62,-0.65
O=C(O)c1ccccc1SC1CC(=O)N(C2CCCCC2)C1=O (stereo unspecified),0.95,-0.99
O=C(c1ccccn1)C1CCCN(Cc2cn[nH]c2-c2cc3ccccc3o2)C1 (stereo unspecified),0.62,-0.01

# Screening results deposited in PubChem BioAssay by Johns Hopkins Ion Channel Center.
